Mtb MbtI inh: MbtI salicylate synthase inhibitors, primary screen, biochemical, fluorescence intensity. P9WFX0. purified MbtI enzyme, fluorescence intensity read-out. inhibition, %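 (about 17 µg/mL by stock and volumes)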. 100,000 tested, 0.89% active. AID 493033, 2011;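 active = above 50% in both replicates, above 80% if mildly self-fluorescent; inactive = the rest, strongly fluorescent compounds included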;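 note: 0% = mean of negative and 100% = mean of positive controls; one replicate is shown; some compounds called inactive have numbers as strong as hits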
Target sequence (P9WFX0 whole entry, looked up): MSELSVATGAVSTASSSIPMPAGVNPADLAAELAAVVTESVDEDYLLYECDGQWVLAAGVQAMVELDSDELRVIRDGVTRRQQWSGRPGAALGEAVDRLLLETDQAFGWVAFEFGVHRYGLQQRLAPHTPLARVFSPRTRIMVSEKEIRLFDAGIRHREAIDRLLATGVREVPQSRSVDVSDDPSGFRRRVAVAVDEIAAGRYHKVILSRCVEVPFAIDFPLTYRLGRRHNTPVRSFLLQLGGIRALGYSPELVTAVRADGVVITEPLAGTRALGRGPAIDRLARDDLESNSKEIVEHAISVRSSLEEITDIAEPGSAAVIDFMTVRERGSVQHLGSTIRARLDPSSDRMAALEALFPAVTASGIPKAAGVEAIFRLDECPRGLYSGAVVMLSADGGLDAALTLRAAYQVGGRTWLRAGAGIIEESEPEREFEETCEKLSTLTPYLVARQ
MenB inh: M. tuberculosis MenB inhibitors, primary screen, biochemical, absorbance; inhibition, %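 (about 12 µg/mL by stock and volumes)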; 100,000 tested, 0.43% active; MenB enzyme assay, absorbance read-out; some hits fall short of the stated cut;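 active = mean of two replicates above 30%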;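 note: 0% = no compound and 100% = wells with inactive enzyme; the first replicate is given; strong numbers were not always called active; inactives centre near -10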
Target sequence (P9WNP5 whole entry, looked up): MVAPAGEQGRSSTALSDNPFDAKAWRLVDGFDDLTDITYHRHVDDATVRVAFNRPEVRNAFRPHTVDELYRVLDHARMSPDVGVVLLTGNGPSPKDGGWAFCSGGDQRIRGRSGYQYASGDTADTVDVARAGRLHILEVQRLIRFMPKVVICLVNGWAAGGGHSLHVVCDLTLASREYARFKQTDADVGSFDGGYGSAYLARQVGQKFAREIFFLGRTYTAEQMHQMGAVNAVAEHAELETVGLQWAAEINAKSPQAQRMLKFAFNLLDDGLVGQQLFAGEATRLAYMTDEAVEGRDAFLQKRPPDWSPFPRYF
PV pol inh: poliovirus RdRp elongation inhibitors, primary screen, biochemical, fluorescence polarization, total intensity | 150,000 tested, 0.66% active | poliovirus polymerase elongation; hits give low values | AID 588519, 2011 | % elongation, % (compound at 16.7 µg/mL); in the data active = % elongation below about 90%; note: some results filed as inactive read as strong as hits
PV pol inh intensity: recorded beside PV pol inh, whose call it bears; % elongation; measured here: total intensity read-out; formula for this scale not given here;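 total fluorescence in place of polarization; lower means less elongation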
* = called active by the depositor; · = not tested or not shown; & = joins results of further samples.

Screens by letter: A = Mtb MbtI inh; B = MenB inh; C = PV pol inh; D = PV pol inh intensity
CCCCn1c(N)c(N2CCOCC2)c(=O)n(CC(=O)NCCc2ccccc2)c1=O
  A: -18	B: 3	C: 106	D: 111

N#CCC(=O)Nc1cccc(Cl)c1Cl
  A: -8	B: -4	C: 111	D: 120

O=C(CN1CCN(S(=O)(=O)/C=C/c2ccccc2)CC1)NC1CCCc2ccccc21 (stereo not given)
  A: -23	B: -19	C: 99	D: 108

Cc1ccc2c(c1)N(C(=O)n1ccnc1)CC(C)O2 (stereo not given)
  A: -1	B: -23	C: 102	D: 98

Cc1ccccc1Nc1nc(N)nc(COC(=O)COc2ccc(C#N)cc2)n1
  A: -1	B: -20	C: ·	D: ·

CC(=O)Nc1c(C(=O)N2CCCCCC2)cnn1-c1ccccc1
  A: -7	B: 1	C: 98	D: 104

CC(=O)Nc1cc(C(=O)N2CCN(c3cc(Cl)ccc3C)CC2)ccc1Sc1ccc(F)cc1
  A: -5	B: -30	C: 101	D: 105

CC(C)c1ccc(NC(=O)C2CC(=O)NC(N3CCN(c4ccccn4)CC3)=N2)cc1 (stereo not given)
  A: -12	B: -15	C: 103	D: 98

Nc1c(-c2ccccc2)c(CN2CCOCC2)nn1-c1ccc(F)cc1
  A: -18	B: 5	C: 101	D: 100

O=C(O)COc1ccc(Br)cc1
  A: -15	B: ·	C: 102	D: 106

CC1CN(C(=O)c2ccccc2)OC(c2cccc(O)c2)O1 (stereo not given)
  A: ·	B: 3	C: 104	D: 110

CNC(=O)COc1coc(CN2c3ccccc3CC2C)cc1=O (stereo not given)
  A: 10	B: -17	C: 106	D: 105

N#CSCC(=O)C12CC3CC(CC(C3)C1)C2
  A: 17	B: 3	C: 104	D: 106

CN(C1CCCCC1)S(=O)(=O)c1ccc(S(=O)(=O)N(Cc2cccs2)CC2CCCO2)cc1 (stereo not given)
  A: -2	B: -152	C: 101	D: 100

CCOC(=O)c1cccnc1SC(CC)C(=O)NCc1ccco1 (stereo not given)
  A: 25	B: -39	C: 101	D: 103

Cc1cc(C(=O)OCc2cc(Cl)cc3c2OCOC3)c2ccccc2n1
  A: -4	B: -22	C: 104	D: 109

CCN(CC)c1ccc(NC(=O)C2(c3ccccc3)CC2)cc1
  A: 13	B: 3	C: ·	D: ·

COc1ccccc1C(=O)NC(=O)CSc1cccc[n+]1[O-]
  A: 27	B: -1	C: 112	D: 109

O=c1c2c3c(sc2nc(NCCO)n1-c1ccccc1)CCCC3
  A: 17	B: 0	C: 101	D: 101

Cc1ccc(S(=O)(=O)CCC(=O)OCc2cccc(S(=O)(=O)N3CCOCC3)c2)cc1
  A: 4	B: -29	C: 98	D: 102

COc1cccc(NC(=O)N(Cc2ccc(C)cc2)Cc2cccn2-c2nnc(N3CCCC3=O)s2)c1
  A: -5	B: -25	C: 104	D: 99

O=C(CSC1=NCCN1)NC1CCCCCC1
  A: 9	B: ·	C: 102	D: 96

CCOC(=O)c1oc2cc3sc(N4CCCCC4)nc3cc2c1C
  A: -1	B: -16	C: 105	D: 102

Clc1nc2ccccc2c(N2CCCCC2)c1CNCc1ccco1
  A: 6	B: -31	C: 101	D: 101

N#Cc1ccc(C=Nc2cc(Cl)c(N)cc2Cl)cc1
  A: -12	B: ·	C: 102	D: 102

O=C(Cn1cccc1)Nc1cccc(F)c1
  A: 4	B: 2	C: 100	D: 105

CC1Cc2ccccc2N1C(=O)COC(=O)c1n[nH]c2ccccc12 (stereo not given)
  A: -6	B: ·	C: 100	D: 103

COc1cccc(NC(=O)c2ccccc2N(C)C(=O)CCC(=O)N2CCC(C)CC2)c1
  A: -21	B: -15	C: 107	D: 107

COc1ccc(C(=O)n2nc(C)cc2Nc2ccccc2)cc1
  A: 1	B: -27	C: 102	D: 99

CCC(C)Sc1nc2ccccc2[nH]1 (stereo not given)
  A: 37	B: -5	C: 109	D: 111

CCCN(CC(=O)N1CCc2ccccc21)S(=O)(=O)c1cccc(C(F)(F)F)c1
  A: 4	B: -14	C: 101	D: 99

COc1cccc(CC(C#N)c2c(C#N)c(N)nc(N3CCOCC3)c2C#N)c1 (stereo not given)
  A: -4	B: -10	C: 106	D: 120

COC(=O)CC1=Nc2ccccc2NC(=O)C1
  A: 6	B: -8	C: 101	D: 103

COc1cccc(C(c2c(O)[nH]c(=S)[nH]c2=O)N2CCOCC2)c1OC (stereo not given)
  A: 19	B: -32	C: 99	D: 102

Clc1ccc(Sc2ncccn2)cc1
  A: 26	B: ·	C: 104	D: 100

CCC(Sc1nc2ccccc2c2nc3ccccc3n12)C(=O)N1CCOCC1 (stereo not given)
  A: 23	B: 7	C: 102	D: 99

O=C(Cc1ccccc1F)Nc1cc2c(cc1Br)OCCO2
  A: -16	B: -18	C: 106	D: 108

Cc1cc(C(=O)Cn2cnc3sccc3c2=O)c(C)n1CC1COc2ccccc2O1 (stereo not given)
  A: 29	B: 11	C: 109	D: 110

CCCn1c(=O)c2sccc2n2c(CCCC(=O)Nc3ccccc3)nnc12
  A: -16	B: 7	C: 101	D: 102

Cc1ccc2c(c1)N(CC(=O)N1CCOCC1)C(=O)c1cccnc1O2
  A: -2	B: 5	C: 99	D: 103

CC12CCC(=O)N1C(C(=O)O)Cc1c2[nH]c2ccccc12 (stereo not given)
  A: -5	B: -18	C: 85*	D: 89*

CN(Cc1ccc(Cl)s1)Cn1c(=O)oc2ccccc21
  A: 0	B: -7	C: 102	D: 104

O=C(NN1C(=O)CSC1=S)c1ccccc1
  A: 19	B: -74	C: 100	D: 106

Cc1cc(=S)cc(C)n1CCCn1ccnc1
  A: 12	B: -54	C: 123	D: 125

c1ccc(CCNc2nc3ccccc3n3cnnc23)cc1
  A: -3	B: -3	C: 102	D: 100

Cc1cc(N2CCN(C)CC2)nc2ccc(NC(=O)NCc3ccc(F)cc3)cc12
  A: 119	B: 6	C: 100	D: 100

COc1ccc(C(C)(C)C)cc1NC(=O)COC(=O)CC1CCCC1
  A: -7	B: ·	C: 101	D: 94

C/C(=N\NS(C)(=O)=O)c1ccc(Br)cc1
  A: 6	B: -6	C: 100	D: 102

CCOC(=O)c1cc(C#N)c(SCC(=O)c2cc3ccccc3oc2=O)[nH]c1=O
  A: -32	B: -12	C: 44	D: 241

CCOc1ccc(NC(=O)c2cc(=O)[nH]c3ccccc23)cc1
  A: -11&-11	B: ·	C: 102&106	D: 106&109

In another format: 7 of the compounds above
Every second line gives: Mtb MbtI inh | MenB inh | PV pol inh | PV pol inh intensity
Cc1ccc2c(c1)N(CC(=O)N1CCOCC1)C(=O)c1cccnc1O2
  -2 | 5 | 99 | 103
CC12CCC(=O)N1C(C(=O)O)Cc1c2[nH]c2ccccc12 (stereo not given)
  -5 | -18 | 85* | 89*
CN(Cc1ccc(Cl)s1)Cn1c(=O)oc2ccccc21
  0 | -7 | 102 | 104
O=C(NN1C(=O)CSC1=S)c1ccccc1
  19 | -74 | 100 | 106
Cc1cc(=S)cc(C)n1CCCn1ccnc1
  12 | -54 | 123 | 125
c1ccc(CCNc2nc3ccccc3n3cnnc23)cc1
  -3 | -3 | 102 | 100
Cc1cc(N2CCN(C)CC2)nc2ccc(NC(=O)NCc3ccc(F)cc3)cc12
  119 | 6 | 100 | 100

Going on with the list:
Screens by letter: A = Mtb MbtI inh; B = MenB inh; C = PV pol inh; D = PV pol inh intensity
CC1CC(=O)C2=C(C1)Nc1ncnn1C2c1cc(F)cc(F)c1 (stereo not given)
  A: 10	B: 8	C: 102	D: 102

CCOC(=O)c1sc2nc(C)cc(C)c2c1NC(=O)Nc1ccc(Cl)cc1
  A: -11	B: 14	C: 108	D: 113

O=C(O)C1CC=CCC1C(=O)N1CCN(C/C=C/c2ccccc2)CC1 (stereo not given)
  A: -15	B: -2	C: 103	D: 108

Cn1c(O)c(C=Nc2cccc(CO)c2)c2ccccc21
  A: -5	B: -102	C: 103	D: 100

CCOC(=O)c1cn(Cc2cccc(Cl)c2)c2cc(C)nn2c1=O
  A: -46	B: -11	C: 107	D: 113

CCOc1ccc(C(=O)CCc2nc3ccccc3s2)cc1
  A: ·	B: -18	C: 108	D: 115

Clc1cccc(Nc2nnc(-c3ccc(Br)cc3)o2)c1
  A: -225	B: 1	C: 102	D: 97

COc1cc(NC(=O)CCN2CCOCC2)cc(OC)c1
  A: 1	B: 7	C: 101	D: 101

CCn1c(C(=O)N2CCC(C(=O)N3CCCCC3)CC2)cc2sccc21
  A: -2	B: -16	C: 102	D: 107

O=C(C/C(=C1/Cc2ccccc2C1=O)c1ccccc1)c1ccccc1
  A: -6	B: -16	C: 103	D: 107

CCCCN(C)c1ccc(C(=O)OC)cc1NC(=S)Nc1cccc(C)c1
  A: -3	B: -100	C: 102	D: 107

CN(C)S(=O)(=O)c1ccc2c(c1)C(=C(C#N)C#N)c1cc(S(=O)(=O)N(C)C)ccc1-2
  A: -14	B: -23	C: 102	D: 101

Cc1ccc(-c2c(C#N)c(SCC(=O)c3cc4ccccc4oc3=O)nc(C)c2C(=O)Nc2ccccc2C)o1
  A: 23	B: 3	C: 106	D: 97

Cc1ccc(N2CCN(CC(=O)Nc3c(C(=O)C4CC4)oc4ccccc34)CC2)cc1
  A: 5	B: 8	C: 100	D: 100

COc1cccc(NC(=O)c2ccccc2S(C)(=O)=O)c1
  A: 4	B: -2	C: 99	D: 103

Cc1ccc(-n2ncc3c(NNC(=O)c4ccco4)ncnc32)c(C)c1
  A: -8	B: -12	C: 102	D: 102

CCC(=O)N(c1nnc(SCC(=O)N2CCC(c3ccccc3)=N2)s1)C1CC1
  A: -8	B: -4	C: 96	D: 102

O=C(NCCCN1CCCC1=O)c1ccc(Cn2c(SCc3ccccc3)nc3ccncc32)cc1
  A: -7	B: -4	C: 100	D: 100

Cc1nc2ccccn2c1C(=O)NN=C1CCCC1
  A: -15	B: -35	C: 103	D: 107

CCOC(=O)c1sc(N2CCCCC2)c2c1CC(C)(C)CC2=O
  A: 0	B: -16	C: 110	D: 109

Cc1cc(=O)oc2cc(OCC(=O)N3CCc4ccccc43)ccc12
  A: 2	B: ·	C: 102	D: 100

CC(=O)N1N=C(N)SC12CCCC2
  A: -7	B: -10	C: 103	D: 99

O=C(O)CC1(CC(=O)Nc2cccc3cnccc23)CCCC1
  A: -14	B: ·	C: 98	D: 113

C[n+]1ccc(/C=C/c2ccccc2O)c2ccccc21
  A: 15	B: -159	C: 105	D: 106

Nc1nc2cc(S(=O)(=O)NC3=NCCCCC3)ccc2s1
  A: 36	B: -13	C: 101	D: 109

C=CCNC(=O)Cc1csc(-c2ccccc2)n1
  A: -12	B: -10	C: 103	D: 103

Brc1ccccc1Cn1cnc2ccccc21
  A: 2	B: -1	C: 99	D: 103

COc1cccc2c1N=C1OC=CC1C2OC (stereo not given)
  A: ·	B: -7	C: 96	D: 94

O=C1C2C3C=CC(C3)C2C(=O)N1C1CC2CCC1C2 (stereo not given)
  A: -3	B: -42	C: 102	D: 105

CCOC(=O)c1oc2ccc(Br)cc2c1CSc1nnc(-c2ccc(OC)cc2)o1
  A: 10	B: -7	C: 103	D: 103

NC(=O)CSc1nc2ccccc2c(=O)n1-c1cccc(Cl)c1
  A: 1	B: -17	C: 133	D: 147

Cc1cccc(N(C)Cc2nnc(-c3ccc4c(c3)OCO4)o2)c1
  A: 3	B: -18	C: 97	D: 103

COc1ccc(OC)c(NC(=O)COC(=O)c2ccc(S(=O)(=O)N3CCOCC3)cc2)c1
  A: -6	B: 4	C: 101	D: 100

CCOC(=O)COc1ccc2c(c1)[nH]c1ccccc12
  A: -6	B: 11	C: 100	D: 102

C#CC(OC(=O)c1ccccc1C(=O)O)c1ccccc1 (stereo not given)
  A: 9	B: 5	C: 101	D: 99

CC(C(=O)Nc1cc(Cl)c(Cl)cc1Cl)N(C)C (stereo not given)
  A: -2	B: -9	C: 106	D: 108

c1c2c(nc3c1CCCC3)CCCC2
  A: 5	B: -12	C: 105	D: 104

CCOc1ccc(N=Cc2c[nH]c3ccc(Br)cc23)cc1
  A: -1	B: ·	C: 99	D: 96

CCOC(=O)c1sc(S(C)(=O)=O)c2c1CC(C)(C)C/C2=N/O
  A: -4	B: -5	C: 99	D: 101

Cc1[nH]c(=O)[nH]c(=O)c1/C=N/NC(N)=O
  A: 7	B: -9	C: 105	D: 102

Cc1c(C(=O)n2cnc3ccccc32)oc2ccccc12
  A: 20	B: 5	C: 101	D: 103

NC(=O)Cn1c(NCc2ccccc2)nc2ccccc21
  A: 12	B: -9	C: 94	D: 103

CCOC(=O)c1cc(/C(C)=N/NS(=O)(=O)c2cc(C(F)(F)F)cc(C(F)(F)F)c2)on1
  A: 6	B: -13	C: 97	D: 98

Cn1c(Cc2nc(-c3cnccn3)no2)nnc1SCc1ccccc1
  A: 11	B: 0	C: 104	D: 97

O=C(Cc1coc2cc(O)ccc12)OCC(=O)N1CCCC1=O
  A: -10	B: 0	C: 105	D: 109

COC(=O)CN(Cc1ccccc1)S(=O)(=O)c1ccc2c(c1)OCCO2
  A: 4	B: -9	C: 103	D: 103

COc1ccc(Cn2ccn(CC(N)=O)c(=O)c2=O)cc1
  A: -3	B: -6	C: 102	D: 104

O=C(O)CC(C(=O)NCc1ccccc1)C1CCCO1 (stereo not given)
  A: -3	B: 2	C: 101	D: 103

CC(=O)OC1c2ccccc2NC(c2ccccc2)C1(C)C (stereo not given)
  A: ·	B: 0	C: 102	D: 102

O=C1Cc2ccccc2C(=O)N1n1cnnc1
  A: -9	B: ·	C: 95	D: 93

Cn1cc(S(=O)(=O)Cc2ccc(Br)cc2)c2ccccc21
  A: -2	B: -11	C: 102	D: 102
